Compound activity deposited in PubChem by National Center for Advancing Translational Sciences (NCATS).
StopGo reporter: High Throughput Screening for Foot and Mouth Disease Virus Antivirals. human cells with a luciferase reporter of 2A StopGo recoding; control for the full effect not named in the record. Potency, µM (titrated, usually from 57.9 µM), for the others: top-dose signal change, negative = less light. 410,000 tested, 1.2% active. AID 1159524, 2015; active = well fitted falling curve with a large enough effect; inconclusive = small, poorly fitted or top-dose-only effect; inactive = no such curve, though single readings can be large or run the other way; tested in HEK293T cells; also: % is scaled to controls: 0 for no effect and ±100 for the full control effect; nearly all actives have a fitted effect of over 45% in size; luciferase light after 4 h
RE007 growth inh: qHTS Assay for Inhibitors of the HIV-1 protein Vpr. S. pombe RE007 Vpr strain, BacTiter-Glo ATP luminescence, 24 h; control for the full effect not named in the record. Potency, µM (series often up to 92.2 µM), inactives show top-dose activity change, negative = less growth. 360,000 tested, 0.21% active. AID 651644, 2012; active = well fitted falling curve with a large enough effect; inconclusive = small, poorly fitted or top-dose-only effect; inactive = no such curve, though single readings can be large or run the other way;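 also: % is scaled to controls: 0 for no effect and ±100 for the full control effect; nearly all actives have a fitted effect of over 50% in size; the assay follows cell death caused by Vpr and the record does not say whether a fall means rescue or toxicity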
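Fission yeast strain RE007, carrying one chromosomally integrated HIV-1 vpr copy, was seeded at OD 0.01 in PMG+AL medium with 23 nL pinned compound. After 24 h at 30 °C and 99% humidity, viability was read by BacTiter-Glo luminescence.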
LASV entry inh: qHTS for Inhibitors of binding or entry into cells for Lassa Virus | Potency, µM (doses to about 37.9 µM), for the others: at the top dose activity change, negative = inhibition, most hits filed as inhibitors | Lassa virus pseudotype entry inhibition, cell reporter; control for the full effect not named in the record | AID 540256, 2011 | 300,000 tested, 1.2% active; active means well fitted inhibition curve with a large enough effect; inconclusive means small, poorly fitted or top-dose-only effect, or effect the other way; inactive means flat fitted curve, though single readings scatter; tested in HEK293 cells; also: % is scaled to controls: 0 for no effect and ±100 for the full control effect; nearly all actives have a fitted effect of over 50% in size; luciferase read-out
SARS PLP yeast: qHTS of Yeast-based Assay for SARS-CoV PLP. S. cerevisiae expressing SARS-CoV PLpro, growth rescue; control for the full effect not named in the record. Potency, µM (series often up to 32.9 µM), without a hit: at the top dose activity, positive = growth rescue. 330,000 tested, 0.19% active. AID 485353, 2010; active means well fitted rising curve with a large enough effect; inconclusive means small, poorly fitted or top-dose-only effect; inactive means no such curve, though single readings can be large or run the other way; also: 0% is about no effect; nearly all actives have a fitted effect of over 55% in size; growth read by luminescence after 48 h
NS1 function inh: qHTS Assay for Inhibitors of Influenza NS1 Protein Function | S. cerevisiae slowed by influenza A NS1, growth recovery by OD600 | Potency, µM (top dose mostly 46.1 µM), for inactives: at the top dose activity, positive = more growth | 270,000 tested, 0.4% active | AID 2326, 2010; active means well fitted rising curve with a large enough effect; inconclusive means small, poorly fitted or top-dose-only effect; inactive means no such curve, though single readings can be large or run the other way; also: nearly all actives have a fitted effect of over 50% in size
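In this qHTS, NS1 from influenza A is expressed in budding yeast, where it slows growth. Cells are switched from glucose to 2% galactose medium (pH 6.0, -URA), treated with compound, and growth recovery is read at OD600.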
MARV entry inh: qHTS for inhibitors of binding or entry into cells for Marburg Virus; Marburg virus pseudotyped entry inhibition, cell reporter; control for the full effect not named in the record; about a third of the inactives were read at about 46 µM; Potency, µM (titrated, usually from 37.8 µM), for the others: top-dose activity change, negative = inhibition, most hits filed as inhibitors; 300,000 tested, 1.8% active; active = well fitted inhibition curve with a large enough effect; inconclusive = small, poorly fitted or top-dose-only effect, or effect the other way; inactive = flat fitted curve, though single readings scatter; tested in HEK293 cells; about a fifth of its hits are not listed in these tables; also: % is scaled to controls: 0 for no effect and ±100 for the full control effect; luciferase read-out
Cruzain inh noDet: qHTS Assay for Promiscuous and Specific Inhibitors of Cruzain (without detergent); Cruzipain (Trypanosoma cruzi), P25779; purified cruzain, Z-FR-AMC fluorescence, no detergent; AID 1476, 2009; Potency, µM, for the others: max response, negative = inhibition, most hits filed as inhibitors; 200,000 tested, 2.3% active;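 also: plate controls were enzyme without inhibitor for no effect and buffer without enzyme for full effect; nearly all actives have a fitted effect of over 40% in size; top concentration of the series not given in the record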
Target sequence (P25779 123-467 limits assumed): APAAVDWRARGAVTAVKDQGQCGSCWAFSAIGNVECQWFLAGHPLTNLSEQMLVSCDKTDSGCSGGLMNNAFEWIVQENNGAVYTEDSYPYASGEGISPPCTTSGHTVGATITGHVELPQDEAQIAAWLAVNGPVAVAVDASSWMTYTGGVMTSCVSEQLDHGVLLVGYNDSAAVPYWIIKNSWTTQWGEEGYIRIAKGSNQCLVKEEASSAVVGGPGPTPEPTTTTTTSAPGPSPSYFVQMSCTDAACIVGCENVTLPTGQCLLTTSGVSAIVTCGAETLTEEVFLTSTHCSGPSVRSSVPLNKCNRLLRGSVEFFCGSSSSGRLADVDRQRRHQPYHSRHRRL
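Detergent-free condition (0.00005% Triton X-100) in acetate buffer pH 5.5 with DTT. 1.5 nM enzyme and compound were pre-mixed 15 min, then 2 uM Z-FR-AMC substrate added; reaction progress from fluorescence change between first and third reads (60 s).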
Cruzain inh Det: qHTS Assay for Promiscuous and Specific Inhibitors of Cruzain (with detergent). AID 1478, 2009. 200,000 tested, 0.43% active. purified cruzain, Z-FR-AMC fluorescence, 0.01% Triton. Potency, µM, without a hit: max response, negative = inhibition, hits mostly inhibitors;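 also: plate controls were neutral wells for no effect and buffer without enzyme for full effect; nearly all actives have a fitted effect of over 40% in size; top concentration of the series not given in the record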
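Enzyme 1.5 nM, Z-FR-AMC 2 uM, NaOAc 100 mM pH 5.5, DTT 5 mM, Triton X-100 0.01%; 15 min RT compound preincubation; kinetic ex360/em450, 60 s delta.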
* = called active by the depositor; ? = inconclusive; · = not tested or not shown; & = joins results of further samples; [ ] = remark or other dose. Unless noted, calls follow the shape of the dose curve; as a rule, active = well fitted curve in the direction sought with a large enough effect; inconclusive = small, poorly fitted or top-dose-only effect, or another doubt; inactive = no such curve, though single readings can be large; an effect the other way counts as inactive or inconclusive. Potency is read from the fitted curve at half-maximal effect.

SMILES	StopGo reporter	RE007 growth inh	LASV entry inh	SARS PLP yeast	NS1 function inh	MARV entry inh	Cruzain inh noDet	Cruzain inh Det
Cc1ccc(C(=O)NCCn2cc(SCC(=O)N3CCOCC3)c3ccccc32)cc1	-17%	-3%	·	1%	-4%	-1%	10%	0.2%
CCOc1ccccc1C(=O)N(Cc1ccccc1F)C1CCS(=O)(=O)C1 (stereo not given)	-10%	·	22%[46.1 µM]	·	·	-1%[46.1 µM]	-18%	-2.7%
Cc1ccc2cc3cc(C(=O)NCc4ccco4)oc3nc2c1	36%[activator]	-11%	?	-1%	1%	?	?	-20%
CCOc1ccccc1C1CC(c2ccc(F)cc2)Nc2nc(N)nn21 (stereo not given)	-21%	-2%	·	1%	3%	·	1%	-0.4%
C=CCN1C(=NC(=O)COc2ccccc2)SC2CS(=O)(=O)CC21 (stereo not given)	-8%	5%	·	?	7%	·	·	·
CC(=O)/C(=C/N(C)C)C(=O)Nc1ccc(Cl)cc1Cl	-15%	-3%	0%[46.1 µM]	-5%	-51%	-11%[46.1 µM]	·	·
CCOc1ccccc1OCCOc1ccccc1OC(C)C	-29%	-17%	-14%	2%	-50%	0%	5%	-1.1%
CCOc1ccc(C(=O)NC(=S)N2CCN(c3ccc(C(F)(F)F)cc3[N+](=O)[O-])CC2)cc1	-11%	-6%	-2%	?	5%	?	12%	-8.7%
CCOC(=O)c1ccccc1NC(=O)c1cncc(Br)c1	-13%	-6%	20%	2%	-5%	?	-5%	1.7%
CCCCn1c(N)c(N(CCOC)C(=O)c2ccc(Br)s2)c(=O)[nH]c1=O	-1%	13%	0%	-3%	·	2%[46.1 µM]	·	·

Random excerpt: two entries already listed, in no set order.
SMILES	StopGo reporter	RE007 growth inh	LASV entry inh	SARS PLP yeast	NS1 function inh	MARV entry inh	Cruzain inh noDet	Cruzain inh Det
Cc1ccc(C(=O)NCCn2cc(SCC(=O)N3CCOCC3)c3ccccc32)cc1	-17%	-3%	·	1%	-4%	-1%	10%	0.2%
CCOc1ccccc1C1CC(c2ccc(F)cc2)Nc2nc(N)nn21 (stereo not given)	-21%	-2%	·	1%	3%	·	1%	-0.4%

More structures.
SMILES	StopGo reporter	RE007 growth inh	LASV entry inh	SARS PLP yeast	NS1 function inh	MARV entry inh	Cruzain inh noDet	Cruzain inh Det
COc1ccc(N2CC(O)=C(c3nc4ccccc4s3)C2=N)c(OC)c1	0%	9%	-22%	-2%	-12%	?	-28%	-10%
CSc1ncccc1C(=O)OCC(=O)Nc1ccc(N2CCOCC2)cc1	-12%	10%	-23%[46.1 µM]	1%	·	4%[46.1 µM]	·	·
COc1ccccc1CCC(=O)OCC(=O)Nc1ccc(C(N)=O)cc1	2%	-5%	21%	-5%	18%	8%[46.1 µM]	·	·
CCc1ccc2occ(CC(=O)N(Cc3ccc(N(C)C)cc3)C3CCS(=O)(=O)C3)c2c1 (stereo not given)	0%	·	0%[46.1 µM]	·	·	6%[46.1 µM]	8%	-9.0%
Cc1ccc(N2C(=O)CC(Sc3ccccc3C(=O)O)C2=O)cc1 (stereo not given)	-14%	10µM*	17%	-32%	-42%	-6%	3%	-3.3%
CCCc1nn(C)c(C(=O)Nc2cccc(C)c2)c1Cl	11%	3%	?	3%	-12%	2%	-9%	-2.7%
O=C(CC(SCc1ccco1)c1ccc(O)cc1)c1cccs1 (stereo not given)	-3%	-17%	15%	-7%	-96%	-2%&-2%	3%	-4.8%
Cc1ccc(NCc2cccn2-c2nnc(N3CCC(C(=O)NCCc4ccc(Cl)cc4)CC3)s2)cc1	0%	·	·	·	·	2%[46.1 µM]	-15%	-4.2%
CC(=O)c1ccc(-c2ccccc2OC(F)(F)F)o1	-3%	1%	·	1%	7%	·	·	·
NN(CCO)C(=S)Nc1ccc(Cl)cc1	-7%	0%	0%[46.1 µM]	2%	·	25%[46.1 µM]	·	·
O=C(NCCCCC(NC(=O)C1CCCCC1)C(=O)O)c1ccccc1 (stereo not given)	26%	18%	-4%	3%	-18%	8%	-4%	4.3%
CCOC(=O)C1(CCCc2ccccc2)CCN(Cc2ccn[nH]2)CC1	-14%	-1%	?	2%	-6%	?	·	·
CC(C(=O)Nc1ccon1)N1C(=O)c2ccccc2S1(=O)=O (stereo not given)	4%	-3%	0%[46.1 µM]	-3%	·	13%	·	·
Cc1ccc(CNC(=O)CCc2ccccc2)cc1	23%	-9%	·	1%	-2%	·	·	·
CCN(CC)C1CCS(=O)(=O)C1 (stereo not given)	-16%	10%	17%[46.1 µM]	1%	·	9%[46.1 µM]	·	·
O=C(Nc1ccc(F)cc1F)c1ccc2c(c1)[nH]c(=O)n2Cc1ccc(F)cc1	?	1%	·	-12%	25%	·	·	·
COCCCNC(=O)C1CCCN(S(=O)(=O)c2ccc(C)cc2)C1 (stereo not given)	·	-10%	2%	-14%	4%	?	-3%	2.2%
O=C(Nc1cc(S(=O)(=O)N2CCOCC2)ccc1N1CCCC1)c1cc(F)c(F)cc1Cl	4%	14%	4%	1%	·	?	·	·
CCc1sc(C(=O)NCCc2ccc(S(N)(=O)=O)cc2)cc1C	-14%	0%	-8%[46.1 µM]	1%	2%	14%[46.1 µM]	·	·
CC1CCC(NC(=O)CCc2cn(Cc3ccccc3Cl)c3ccccc23)CC1 (stereo not given)	14%	·	?	·	·	·	0%	-4.7%
O=C(Nc1ccc(F)c(F)c1)C1=COCCO1	42%[activator]	-1%	5%	-2%	·	21%	·	·
COc1c(C)cc(C(=O)C2CCCN(C(=O)c3cc(C4CC4)[nH]n3)C2)cc1C (stereo not given)	-20%	-15%	·	-1%	-7%	·	·	·
Cc1cccc2c1-c1sc(C(=O)N3CCCCC3)cc1CO2	49%[activator]	-11%	·	-32%	-112%	·	·	·
COc1ccc(NC(=O)NNC(=O)C(C)Oc2ccc3ccccc3c2)cc1 (stereo not given)	-11%	1%	7%	-1%	-6%	25%	·	·
CCOC(=O)N1CCC(N2Cc3cccc(C(=O)Nc4c(C)cccc4CC)c3C2=O)CC1	-19%	11%	-20%[46.1 µM]	-16%	17%	?	·	·
COc1cc(C(=O)OC(C)C(=O)Nc2ccc3c(c2)OCCO3)cc(OC)c1OC (stereo not given)	-18%	-5%	?	-4%	·	-10%	·	·
O=C(CN1C(=O)NC(c2ccccc2)(c2ccccc2)C1=O)Nc1ccc(N2CCOCC2)cc1	-16%	9%	-14%[46.1 µM]	-14%	·	0%[46.1 µM]	·	·
Cc1cc(=O)n2[nH]c(-c3ccc(F)cc3)nc2n1	24%	-15%	?	-11%	?	0%	0%	4.8%
Cc1ccsc1/C=N/Nc1ccc(C(=O)O)cc1	8.9µM*	-7%	·	-5%	-45%	·	·	·
O=C(Nc1ccsc1C(=O)N1CCCC1)c1ccccc1	-12%	7%	22%	3%	·	?	·	·
CCn1c(SCC(=O)N2CCCC2)nnc1-c1ccc(S(=O)(=O)N2CCCCCC2)cc1	-25%	13%	-16%	1%	-10%	?	17%	-0.7%
CCCCN(CC)C(=O)Cn1ncc2c1-c1cc(C)ccc1OC2	-25%	0%	·	3%	14%	·	17%	2.4%
Cc1cc(C)n(-c2ccc(Cl)c(C(=O)Nc3ccc(-c4nnc5n4CCCCC5)cc3)n2)n1	-6%	-4%	1%	0%	-10%	12%	-2%	-1.0%
CCCOc1ccccc1C(=O)Nc1ccc(-c2nc3ccc(C)cc3s2)cc1	53%[activator]	·	?	·	·	?	10%	-1.4%
Cc1onc(-c2ccccc2)c1C(=O)NCC1CCN(C(=O)c2c(-c3ccccc3)noc2C)CC1	9%	5%	13%	2%	-4%	5%	?	-1.2%
Cc1ccc(CN2CCN(C3CSCCSC3)CC2CCO)cc1 (stereo not given)	-17%	9%	7%[46.1 µM]	0%	0%	-6%[46.1 µM]	·	·
O=C(C1CCC(CNc2c(N3CCCC3)c(=O)c2=O)CC1)N1CCc2ccccc21 (stereo not given)	-23%	29%	·	-8%	-3%	·	·	·
O=c1c2ccccc2n2c(-c3ccc(C(F)(F)F)cc3)nnc2n1Cc1ccccc1	?	2%	-15%	3%	3%	1%	-5%	1.5%
CC(C)(C)NC(=O)N1CCCC(C(=O)c2cccc(Cl)c2)C1 (stereo not given)	0%	-4%	·	-2%	2%	·	·	·
COc1ccc(CN2CCN(Cc3ccc(C)cc3)CC2)c(OC)c1	-12%	-13%	5%	0%	2%	10µM*	·	·
Cn1c(-c2cccc(Br)c2)cnc1NCc1ccccc1O	11%	-7%	-8%[46.1 µM]	-1%	-12%	?	·	·
CN(C(=O)COC(=O)c1ccc2c(c1)OCO2)C1CCS(=O)(=O)C1 (stereo not given)	-8%	1%	0%	5%	-2%	-1%	0%	4.2%
CC(=O)c1[nH]c(C)c(C(=O)N2CCCC(Nc3cccc(F)c3)C2)c1C (stereo not given)	-1%	0%	·	0%	9%	·	·	·
CC(=O)C1=C(C)NC(SCSc2ccccc2)=C(C#N)C1c1cccnc1 (stereo not given)	-13%	-17%	?	-2%	-39%	-21%	4%	-5.8%
COc1ccc(OCC(=O)Nc2ccc3oc(-c4ccncc4)nc3c2)cc1	-1%	7%	?	-1%	5%	16%[46.1 µM]	·	·

A few values from the entries so far:
`CC(=O)C1=C(C)NC(SCSc2ccccc2)=C(C#N)C1c1cccnc1` (stereo not given) in NS1 function inh shows -39%
`COc1ccc(OCC(=O)Nc2ccc3oc(-c4ccncc4)nc3c2)cc1` in NS1 function inh shows 5%
`CC(=O)c1[nH]c(C)c(C(=O)N2CCCC(Nc3cccc(F)c3)C2)c1C` (stereo not given) in StopGo reporter shows -1%
`CN(C(=O)COC(=O)c1ccc2c(c1)OCO2)C1CCS(=O)(=O)C1` (stereo not given) in RE007 growth inh shows 1%
`Cn1c(-c2cccc(Br)c2)cnc1NCc1ccccc1O` in RE007 growth inh shows -7%

Outcome played no part in choosing rows, and some 4.7% of all compounds hit somewhere here.
